VACV mCherry inh – inhibitors of vaccinia virus infection (mCherry reporter signal); Vaccinia virus mCherry reporter infection, fluorescence; about a quarter of the inactives have no number; Potency, µM (titrated, usually from 36.5 µM), for inactives: top-dose activity change, negative = inhibition, hits mostly inhibitors; hit rate 0.63% among 310,000; AID 720579; active = well fitted inhibition curve with a large enough effect; inconclusive = small, poorly fitted or top-dose-only effect; inactive = no such curve, though single readings can be large or run the other way; tested in A549 cells; also: nearly all actives have a fitted effect of over 35% in size; inactives centre near -10
Vaccinia Venus – vaccinia inhibition (Venus reporter) | Vaccinia virus Venus reporter expression, fluorescence | hit rate 0.46% among 330,000 | Potency, µM (titrated, usually from 36.5 µM), without a hit: at the top dose activity change, negative = inhibition, usual class: inhibitors; active means well fitted inhibition curve with a large enough effect; inconclusive means small, poorly fitted or top-dose-only effect; inactive means no such curve, though single readings can be large or run the other way; tested in A549 cells; also: nearly all actives have a fitted effect of over 30% in size; inactives centre near -10
* = called active by the depositor; i = inactive; u = inconclusive; x = no result given; [ ] = another dose, or the depositor's remark. % is scaled to controls: 0 for no effect and ±100 for the full control effect; potency is read from the fitted curve at half-maximal effect. This is a random part of the collection (roughly 0.88% active in at least one column).

SMILES	VACV mCherry inh	Vaccinia Venus
CC1=C(C(=O)OC(C)C)C(c2coc3ccccc3c2=O)C2=C(CCCC2=O)N1 (centres undefined)	x	6%
CCCn1c(C(Cc2ccccc2)NC(=O)COC)nc2ccccc21 (centres undefined)	1%	9%
CSc1nc2ncnc(N)c2[nH]1	-11%	-7%
CCN(CC)C(=O)c1ccccc1NC(=O)CN1C(=O)c2ccccc2C1=O	-11%	2%
C=CCn1c(COc2cc(C)ccc2C(C)C)nnc1SCC(=O)c1c(N)n(C)c(=O)n(C)c1=O	-6%	0%
COc1ccc(NC(=O)CSc2nc(O)c(C/C=C/c3ccccc3)c(=O)[nH]2)cc1	-4%	-3%
COc1ccccc1N1CCN(CCCNC(=O)c2cnn(-c3ccc(C)c(C)c3)c2C2CCN(C(=O)OC(C)(C)C)CC2)CC1	u	u
CCCCCC(=O)NNC(=O)Nc1ccccc1	-14%	-6%
COc1ccc2nc(NNC(=O)COc3ccccc3)sc2c1	-7%	-3%
COc1ccc(Cc2nnc(Nc3c(C)cccc3C)o2)cc1OC	i	0%
COCCNC(=O)C(c1cccs1)N(C(=O)Cn1nnc2ccccc21)c1cccc(C)c1 (centres undefined)	-13%	-11%
Cc1ccc(C)c(C(=O)N2CCC(C3(c4ccccn4)NC(=O)N(CC4CCCO4)C3=O)CC2)c1 (centres undefined)	i	-13%
Cc1ccnc(NC(=O)CN2C(=O)c3ccccc3C2=O)c1	i	0%
CCC1Sc2ccccc2N(CC(=O)NC2CC2)C1=O (centres undefined)	-21%	-9%
CCCCN1C(=O)C(O)(CC(=O)c2ccco2)c2cc(Br)ccc21 (centres undefined)	-13%	-3%
Cn1c(-c2ccccc2F)cc2onc(-c3ccccc3)c2c1=O	u	-26%
CC(c1ccccc1)N1C(=O)c2ccccc2C1O (centres undefined)	19%	10%
CCc1nnc(NC(=O)CSc2nc3c([nH]c4ccccc43)c(=O)n2-c2cc(C)cc(C)c2)s1	-4%	-9%
C=CC[n+]1c(-c2ccc(Cl)cc2Cl)csc1Nc1ccc(NC(C)=O)cc1	u	-10%
CC(C)c1cc(=O)n2[nH]c(N)nc2n1	-1%	-15%
Cc1c(CNC2CCCC2)c(C(=O)O)c(C)n1Cc1ccccc1	-3%	-3%
CC(=O)c1ccc(N2Cc3ccccc3/C2=N\C(=O)Nc2ccc(Cl)cc2)cc1	-13%	-13%
COc1cccc(Nc2cc(C)c3ccccc3n2)c1	u	-15%
CCOC(=O)c1ccccc1NC(=O)COC(=O)C1=COCCO1	x	-9%
COc1cc(C(=O)NCC(=O)NCCN2C(=O)S/C(=C\c3ccccc3Cl)C2=O)cc(OC)c1OC	-12%	-22%
COc1ccc(OCc2cc(C(=O)N(C)C3CCOC3)no2)c(Cl)c1 (centres undefined)	-19%	-15%
CCS(=O)(=O)N1N=C(c2ccc(NS(C)(=O)=O)cc2)CC1c1ccccc1 (centres undefined)	-16%	-8%
COc1ccc(C2=NC(CO)(CO)CO2)cc1	i	-6%
CCOC(=O)c1sc(NC(=O)CCN2CCN(CC)CC2)c(C(=O)OCC)c1C	-13%	4%
CN(CC(=O)Nc1ccccc1Cl)C(=O)COC(=O)c1ccc([N+](=O)[O-])cc1Cl	-14%	-6%
CN(C)S(=O)(=O)c1ccc(S(=O)(=O)NCc2cccs2)cc1	-14%	-6%
C/C(CC(=O)NCc1ccco1)=N\NC(=O)Cc1ccc(Cl)cc1	-19%	-8%
Cc1ccc(CNC(=O)c2cc3c(s2)-c2ccccc2SC3)cc1	u	u
COc1ccccc1-n1cnnc1SCC(=O)c1ccc[nH]1	-15%	-3%
O=C(c1ccc2c(c1)N(Cc1cccc(Cl)c1)C(=O)c1ccccc1S2(=O)=O)N1CCN(Cc2ccccc2)CC1	-17%	-11%
O=c1oc(-c2cccc([N+](=O)[O-])c2)nc2ccccc12	-3%	-17%
CCn1cc(C(=O)NCC2CCCO2)c(=O)c2cc(S(=O)(=O)N(C)C3CCCCC3)ccc21 (centres undefined)	-7%	6%
Cc1nc2cc(-c3ccccc3)nn2c(C)c1CCC(=O)N1CCN(c2ccc(F)cc2)CC1	-17%	-2%
Cc1ccc(NC(=O)CN2c3cccc4cccc(c34)S2(=O)=O)cc1	-18%	-5%
O=C(N/N=C/c1ccc([N+](=O)[O-])o1)c1cc(-c2cccc(Br)c2)nc2ccccc12	-18%	-30%
Cn1cc(CN2CCC(Oc3ccc(C(=O)N4CCCCC4)cc3)CC2)cn1	-15%	-9%
Cc1ccc(C)c(-n2c(CNC(=O)c3ccco3)nnc2SCC(=O)N2CCc3ccccc32)c1	-20%	-9%
O=C(/C=C/c1cccs1)c1ccc(N2CCOCC2)cc1	-15%	-19%
O=C(CN1CCC(C(=O)c2cccc(F)c2)CC1)NCc1cccs1	-12%	-24%
CCOC(=O)c1cc2c(=O)[nH]ccc2nc1C(F)(F)F	-2%[7.34 µM]	-2%[7.34 µM]
COc1ccc(C(CNC(=O)C(=O)Nc2ccc3c(c2)OCO3)N2CCN(C)CC2)cc1 (centres undefined)	u	-14%
Cc1ncc2c(c1CNC(=O)c1ccccc1F)CCN(C(=O)c1ccc3c(c1)OCCO3)C2	-9%	-7%
CCOC(=O)c1c(NC(=O)CCC(=O)O)sc2c1CC(C)(C)OC2	-4%	-1%
CCOC(=O)c1[nH]c2c(c1Cc1ccccc1OC)C(=O)CC(c1ccc(OCC)cc1)C2 (centres undefined)	-26%	-9%
COc1cccc(NC(=O)CN(C)C(=O)c2cc(-c3ccccc3)nn2-c2ccccc2)c1	i	-12%
O=C1CCNc2c(Cl)cccc21	-9%	0%
O=C(Nc1nnc([C@@H]2O[C@H](CO)[C@@H](O)[C@H]2O)s1)Nc1ccccc1C(F)(F)F	51%[activator]	-1%
O=C(O)CCCn1cc(NC(=O)COc2ccc([N+](=O)[O-])cc2)cn1	i	7%
O=C1NC[C@@H](Cc2ccc(O)cc2)N(CCc2cccc3ccccc23)C1=O	-30%	-9%
c1cncc(-c2ccc3[nH]ccc3c2)c1	-27%	-12%
CN1CCN(C(=O)c2ccccc2NC(=O)c2ccccc2)CC1	i	1%
Cc1cccnc1NC(=O)CCCN1C(=O)c2ccccc2C1=O	-6%	-3%
COc1cc2c(cc1NC(=O)/C=C/c1cc(OC)c(OC)c(OC)c1)oc1ccccc12	-24%	-27%
CCc1nnc2c(N(C)S(=O)(=O)c3ccc(C)cc3)nc3ccccc3n12	i	-4%
Cc1ccc(S(=O)(=O)N(CC(O)Cn2c3ccccc3c3ccccc32)c2cccc(C(=O)NCCO)c2)cc1 (centres undefined)	-11%	-12%

Carrying on:
SMILES	VACV mCherry inh	Vaccinia Venus
CCCn1c(=O)c2[nH]c(-c3ccccc3)nc2n(CCC)c1=O	i	-12%
COc1ccc(C2/C=C\CN(C(=O)C3CC3)CC(=O)N2Cc2ccc(F)cc2)cc1 (centres undefined)	-27%	-3%
CCn1ccnc1CN(C)C(=O)c1cc(COc2ccccc2SC)on1	-21%	-16%
CCCN1CCN(CCCNC(=O)Cn2nc(CC)n3c(cc4occc43)c2=O)CC1	-8%	-5%
CC(=O)Nc1ccc(NC(=O)C2CCCN2S(=O)(=O)c2cccc3nsnc23)cc1 (centres undefined)	-5%	-19%
O=C(NC(CSSCC(NC(=O)c1ccccc1)C(=O)O)C(=O)O)c1ccccc1 (centres undefined)	-3%	0%
COc1ccccc1OCC(=O)NNC(=O)Nc1ccc(Cl)cc1	-18%	-26%
COc1ccc(NC(=O)CN(C)C(=O)CNC(=O)c2ccc3ccccc3c2)cc1	-10%	-23%
Cc1c(Cc2ccccc2)c(=O)oc2cc(OCC(=O)c3ccccc3)ccc12	i	-1%
C/C(=N\NC(=O)c1ccc(Cn2cc([N+](=O)[O-])cn2)o1)c1cccc(NC(=O)C(C)C)c1	-26%	-3%
O=C(Cn1cc(COc2c(F)c(F)cc(F)c2F)nn1)c1ccc(O)cc1	u	-16%
COc1cc(O)c(C(CCN2CCOCC2)c2cc(OC)c(OC)c(OC)c2)c(OC)c1 (centres undefined)	-15%	-21%
CN(C)S(=O)(=O)c1ccc(N)c([N+](=O)[O-])c1	i	-8%
C/C=C/C(=O)OCC(=O)Nc1cc(OC)c([N+](=O)[O-])cc1C	5.6µM*	7.9µM*
COc1ccc(-c2nnc(SCC(=O)Nc3cc(C)on3)o2)cc1	i	-8%
COc1cc(OC)cc(C(=O)NCc2nc(-c3ccccc3)no2)c1	0%	-13%
CC1=CC(=O)C=C(C)C1=NOc1ccccc1[N+](=O)[O-]	-4%	9%
O=C(Nc1cccnc1)c1cc(F)cc(F)c1	x	-37%
O=C(CSc1nc(-c2ccco2)cc(C(F)(F)F)n1)Nc1ccc2c(c1)CCC2	x	-28%
CCOC(=O)C1CCCN(C(=O)c2ccc3c(c2)CCO3)CC1 (centres undefined)	13%	12%
COc1ccc(N(CC(=O)Nc2cc(OC)ccc2OC)S(C)(=O)=O)cc1	-23%	-25%
CC(C)CCNC(=O)C1CC(c2ccccc2[N+](=O)[O-])=NO1 (centres undefined)	-5%	-11%
CCOc1nc(Nc2ccc(OC)c(Cl)c2)nc(N2CCN(c3ccc(OC)cc3)CC2)n1	x	-11%
CC1=C(C/C(C)=C/c2ccccc2)/C(=C/CO)[C@@H]2OC(=O)O[C@]2(C)C12CC2	-19%	-16%
COc1ccc(S(=O)(=O)Nc2cccc(N(C)S(C)(=O)=O)c2)cc1C	u	-15%
O=C(COc1ccc(S(=O)(=O)N2CCCC2)cc1)Nc1ccc2c(c1)OCCO2	-9%	-16%
COc1cccc(-n2nc(-c3ccnn3-c3ccccc3)c(=O)n(C)c2=O)c1	x	3%
Cc1ccc(CCN2C(=O)CCC2(C)C(=O)NCc2cccnc2)cc1 (centres undefined)	i	-10%
Oc1ccc(NC(=S)N=Nc2c(O)[nH]c3ccc(Br)cc23)cc1	u	-16%
COc1cc(C=O)cc(Cl)c1OC(=O)N1CCOCC1	i	-1%

A different layout for some results above:
Structure: CC1=C(C/C(C)=C/c2ccccc2)/C(=C/CO)[C@@H]2OC(=O)O[C@]2(C)C12CC2
  VACV mCherry inh: -19%	Vaccinia Venus: -16%

Structure: COc1ccc(S(=O)(=O)Nc2cccc(N(C)S(C)(=O)=O)c2)cc1C
  VACV mCherry inh: u	Vaccinia Venus: -15%

Next section.
SMILES	VACV mCherry inh	Vaccinia Venus
Nc1nnc(SCC(=O)Nc2ccc(N3CCOCC3)c(Cl)c2)s1	-11%	-21%
COc1cc(CC(NC(C)=O)C(=O)NC2CCN(S(=O)(=O)c3ccc(NC(C)=O)cc3)CC2)cc(OC)c1 (centres undefined)	0%	-12%
CCN(CC)Cc1c(C(=O)N/N=C/c2cccc(OCc3ccc(F)cc3)c2)nnn1-c1nonc1N	-24%	-7%
CC(NC(=O)c1cccc(S(=O)(=O)N2CCc3ccccc3C2)c1)c1ccco1 (centres undefined)	-24%	-11%
COc1ccccc1NC(=O)CSc1nc2ccccc2cc1Cc1ccccc1	11%	10%
O=C(NC1CCCCC1)c1sc(N2CCOCC2)nc1-c1ccccc1	-13%	-6%
CCC1(c2ccccc2)NC(=O)N(CC(=O)Nc2cc(Cl)ccc2N2CCOCC2)C1=O (centres undefined)	-20%	u
COc1ccccc1NC(=S)NC(=O)c1ccc(-c2ccc(Cl)cc2)o1	u	-8%
C=CCn1c(SCC)nc(O)cc1=O	-17%	-12%
Cc1cc(C=C2C(=O)NC(=O)NC2=O)c(C)n1-c1ccncc1	-9%	-4%
Cc1cc(=O)c2c(O)c(O)ccc2o1	-27%	-22%
CCOC(=O)c1c(NC(=O)C(=O)N/N=C/c2ccccc2O)sc2c1CCCCC2	i	-10%
Cc1noc(NS(=O)(=O)c2ccc(N/C=C\C(=O)c3ccc(F)cc3)cc2)c1C	0%	3%
CC1CCc2c(sc(NC(=O)CCC(=O)O)c2C(=O)NC2CC2)C1 (centres undefined)	-7%	3%
O=C(Nc1nc(-c2ccccc2)nc2ccccc12)c1ccc(F)cc1	i	-18%

Structural class: the compounds so far containing a Cl atom
SMILES	VACV mCherry inh	Vaccinia Venus
C=CC[n+]1c(-c2ccc(Cl)cc2Cl)csc1Nc1ccc(NC(C)=O)cc1	u	-10%
CC(=O)c1ccc(N2Cc3ccccc3/C2=N\C(=O)Nc2ccc(Cl)cc2)cc1	-13%	-13%
COc1cc(C(=O)NCC(=O)NCCN2C(=O)S/C(=C\c3ccccc3Cl)C2=O)cc(OC)c1OC	-12%	-22%
COc1ccc(OCc2cc(C(=O)N(C)C3CCOC3)no2)c(Cl)c1 (centres undefined)	-19%	-15%
CN(CC(=O)Nc1ccccc1Cl)C(=O)COC(=O)c1ccc([N+](=O)[O-])cc1Cl	-14%	-6%
C/C(CC(=O)NCc1ccco1)=N\NC(=O)Cc1ccc(Cl)cc1	-19%	-8%
O=C(c1ccc2c(c1)N(Cc1cccc(Cl)c1)C(=O)c1ccccc1S2(=O)=O)N1CCN(Cc2ccccc2)CC1	-17%	-11%
O=C1CCNc2c(Cl)cccc21	-9%	0%
COc1ccccc1OCC(=O)NNC(=O)Nc1ccc(Cl)cc1	-18%	-26%
CCOc1nc(Nc2ccc(OC)c(Cl)c2)nc(N2CCN(c3ccc(OC)cc3)CC2)n1	x	-11%
COc1cc(C=O)cc(Cl)c1OC(=O)N1CCOCC1	i	-1%
Nc1nnc(SCC(=O)Nc2ccc(N3CCOCC3)c(Cl)c2)s1	-11%	-21%
CCC1(c2ccccc2)NC(=O)N(CC(=O)Nc2cc(Cl)ccc2N2CCOCC2)C1=O (centres undefined)	-20%	u
COc1ccccc1NC(=S)NC(=O)c1ccc(-c2ccc(Cl)cc2)o1	u	-8%
